Compound activity from PubChem BioAssay.
Polio RdRp inh: poliovirus RNA polymerase inhibition | % elongation, % (compound at 16.7 µg/mL) | actives 0.66% (n = 150,000) | P03300 | poliovirus polymerase elongation, fluorescence polarization; stronger effect = lower value; in the data active means % elongation below about 90%; further: some results filed as inactive read as strong as hits
Target sequence (P03300 1749-2209 limits assumed): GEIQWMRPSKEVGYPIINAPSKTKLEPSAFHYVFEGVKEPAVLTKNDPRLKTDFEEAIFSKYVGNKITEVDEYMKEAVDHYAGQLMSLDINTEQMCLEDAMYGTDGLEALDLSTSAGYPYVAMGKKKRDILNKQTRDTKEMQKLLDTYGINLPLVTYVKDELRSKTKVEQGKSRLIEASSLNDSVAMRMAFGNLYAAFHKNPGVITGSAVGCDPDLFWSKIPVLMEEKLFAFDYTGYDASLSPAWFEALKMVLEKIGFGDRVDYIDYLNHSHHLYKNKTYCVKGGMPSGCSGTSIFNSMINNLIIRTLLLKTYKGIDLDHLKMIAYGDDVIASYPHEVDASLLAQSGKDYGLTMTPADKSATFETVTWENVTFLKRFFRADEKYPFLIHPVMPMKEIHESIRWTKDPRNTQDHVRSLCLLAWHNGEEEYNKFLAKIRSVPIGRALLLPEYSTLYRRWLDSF
Polio RdRp inh intensity: further read-out of Polio RdRp inh, marked with its call; % elongation; measured here: total intensity read-out; formula for this scale not given here;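 total fluorescence in place of polarization; lower means less elongation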
Numbers without * were called inactive. The list is partial. The share of hits here may be higher or lower than overall.

Second line of a record: Polio RdRp inh, Polio RdRp inh intensity
- COc1ccc(O)c(C2Nc3ccccc3-n3c(-c4ccccc4)c4c(=O)n(C)c(=O)n(C)c4c32)c1 (stereo not given)
 : 104, 111
- CC1CCC(NC(=O)C2(C)Cc3ccccc3C(=O)N2Cc2ccc(F)cc2)CC1 (stereo not given)
 : 114, 114
- N#Cc1ccccc1NC(=O)c1cnc(N2CCOCC2)c2ccccc12
 : 106, 111
- COc1ccc(Cn2c(SCc3ccc(C(=O)NC(C)C)cc3)nc3cccnc32)cc1
 : 111, 101
- COc1ccc(-c2nnc(Nc3ccc(OC)c(C(N)=O)c3)c3ccccc23)cc1
 : 106, 106
- Cc1csc2nc(COC(=O)c3cccc(NC(=O)COc4ccc(Cl)cc4)c3)cc(=O)n12
 : 110, 112
- Cc1cccc(NC(=O)CCn2cnc3ccccc3c2=O)c1
 : 99, 96
- O=C(Cn1ncn2nc(-c3cccs3)cc2c1=O)NCc1ccc(Cl)cc1
 : 104, 103
- Cc1ccc(S(=O)(=O)c2cnc(SCC(=O)Nc3ccccc3C(F)(F)F)[nH]c2=O)cc1C
 : 106, 106
- CCOc1ccccc1CNC(=O)c1cc(-c2ccc(C)c(C)c2)nc2ccccc12
 : 112, 116
- Cc1cc(C)c(NC(=O)C2CCN(c3nnc(C)c4c(C)n(-c5ccccc5)nc34)CC2)c(C)c1
 : 103, 105
- CCOC(=O)c1ccc(NC(=O)CCc2nc3cccnc3n2Cc2cccs2)cc1
 : 110, 140
- CCC(C(=O)N1CCN(c2ccccc2)CC1)n1nc(C)n2c(cc3sccc32)c1=O (stereo not given)
 : 109, 113
- COCCNC(=O)c1ccc(CSc2nc3ccncc3n2Cc2ccccc2)cc1
 : 109, 111
- CC(C)(C)OC(=O)N1CCC(c2c(C(=O)Nc3ccc4c(c3)OCO4)cnn2-c2ccc(F)cc2F)CC1
 : 108, 110

Second line of a record: Polio RdRp inh, Polio RdRp inh intensity
- CC(=O)N1c2ccccc2CC1C(=O)NCc1cccc(Cl)c1 (stereo not given)
 : 110, 113
- Cc1ccc(C)c(N2C(=O)N(C)c3ccccc3S2(=O)=O)c1
 : 112, 110
- O=C(Cn1cc(S(=O)(=O)Cc2cccc(Cl)c2)c2ccccc21)Nc1ccc(F)c(Cl)c1
 : 102, 106
- Cc1ccc(NC(=O)CCN2C(=O)c3ccccc3Sc3ncccc32)c(Cl)c1
 : 110, 108
- COc1ccc(Cl)cc1NC(=O)Cn1c(=O)n2nc(-c3ccccc3)nc2c2ccccc21
 : 110, 114
- CCOc1ccc(NC(=O)c2cc3cc4cc(OC)ccc4nc3s2)cc1
 : 115, 118
- CCn1nnc2cc(C(=O)Nc3ccc(OC)cc3)ccc21
 : 111, 112
- CN(C)c1ccc(-c2nc(-c3ccco3)no2)cc1[N+](=O)[O-]
 : 100, 95
- CCN(CC)CCCNC(=O)CCc1c(C)nc2c(c1C)c(=O)n(C)c(=O)n2C
 : 109, 113
- COC(=O)CCNC(=O)N1CCN(c2nnc(C)c3c(C)n(-c4ccccc4)nc23)CC1
 : 112, 115
- CCN(Cc1ccccc1)S(=O)(=O)c1ccc(-c2coc(C)n2)cc1
 : 104, 104
- Cc1cc(Br)ccc1NC(=O)c1sc2nc3n(c(=O)c2c1C)CCCC3
 : 110, 108
- O=C(COc1ccc(F)cc1)Nc1ccc2nc(SCC(=O)N3CCc4ccccc43)sc2c1
 : 107, 101
- COc1ccc(-c2nc3cc(C(C)C)ccc3o2)cc1NC(=O)COc1ccc(C)cc1C
 : 109, 110
- COc1ccc(Br)cc1CNC(=O)C(C)n1nc(C)n2c(cc3occc32)c1=O (stereo not given)
 : 111, 113

Entries listed so far that have two or more sulfur atoms:
Second line of a record: Polio RdRp inh, Polio RdRp inh intensity
- Cc1ccc(S(=O)(=O)c2cnc(SCC(=O)Nc3ccccc3C(F)(F)F)[nH]c2=O)cc1C
 : 106, 106
- O=C(COc1ccc(F)cc1)Nc1ccc2nc(SCC(=O)N3CCc4ccccc43)sc2c1
 : 107, 101

Profiles, looked up by structure:
COc1ccc(-c2nc3cc(C(C)C)ccc3o2)cc1NC(=O)COc1ccc(C)cc1C is listed as Polio RdRp inh: 109; Polio RdRp inh intensity: 110
CN(C)c1ccc(-c2nc(-c3ccco3)no2)cc1[N+](=O)[O-] is listed as Polio RdRp inh: 100; Polio RdRp inh intensity: 95

(cont.)
Second line of a record: Polio RdRp inh, Polio RdRp inh intensity
- Cc1ccc(-c2noc(COc3ccc(Br)c(C)c3)n2)cc1
 : 106, 105
- Cc1cccc(NC(=O)CSc2nnc3[nH]c(=O)cc(C)n23)c1C
 : 107, 112
- CSc1ccc(CCNC(=O)c2csc3c2CCCCC3)cc1
 : 104, 106
- Cc1cc(N2CCN(c3ccc(F)cc3)CC2)n2cnnc2n1
 : 108, 109
- COc1ccc(CNC(=O)c2cccc(-n3cnc4cccnc43)c2C)cc1
 : 105, 105
- Cc1cc(OCC(=O)Nc2nc3c(s2)CCCC3)cc(C)c1Cl
 : 102, 99
- CCOC(=O)c1c(C)[nH]c(C)c1S(=O)(=O)N1CCCC(C(=O)NCc2ccc(C)cc2)C1 (stereo not given)
 : 103, 107
- CCOc1ccc(CNC(=O)COc2cc(=O)n(C)c3ccccc23)cc1
 : 104, 110
- COc1cc(Cn2c(=O)sc3ccccc32)ccc1OC(C)C
 : 102, 106
- CCc1ccccc1NC(=O)c1oc(=O)c2ccccc2c1-c1ccccc1
 : 104, 102
- O=C(Nc1ccc(F)c(F)c1)c1ccc(=O)n(Cc2ccc(F)cc2)c1
 : 109, 94
- O=S(=O)(Nc1cccc(-c2ccc(N3CCCC3)nn2)c1)c1ccccc1C(F)(F)F
 : 106, 106
- O=C(COCc1cc(-c2ccc3c(c2)OCO3)on1)Nc1cc(C(F)(F)F)ccc1Cl
 : 112, 99
- CC(C)c1ccc(NC(=O)Cn2nnc(C(=O)NCc3ccc(Cl)cc3)c2N)cc1
 : 103, 105
- COc1ccc(-c2cc(C(C)=O)c(C)n2CCC(=O)Nc2cc(Cl)ccc2C)cc1
 : 103, 98

Second line of a record: Polio RdRp inh, Polio RdRp inh intensity
- CC1CCc2onc(C(=O)N3CCN(c4cccc(C(F)(F)F)c4)CC3)c2C1 (stereo not given)
 : 100, 106
- COc1ccc(-c2onc(C)c2C)cc1S(=O)(=O)Nc1ccc(OC(F)(F)F)cc1
 : 106, 114
- COC(=O)c1cc2oc3ccccc3c2n1CC(=O)Nc1ccc(C)cc1Cl
 : 103, 107
- Cc1ccc(NC(=O)CN2C(=O)CCn3nc(-c4cccn4C)cc32)c(Cl)c1
 : 108, 103
- Cc1nn(-c2ccc(N3CCCCC3)nn2)c(C)c1CCC(=O)Nc1cccc(F)c1
 : 102, 107
- COc1ccc(-c2cc3nc(-c4ccc(Br)cc4)cc(C(F)(F)F)n3n2)cc1
 : 106, 111
- CCC(=O)N1CCc2cc(S(=O)(=O)NC(Cc3ccccc3)C(=O)O)ccc21 (stereo not given)
 : 106, 112
- O=c1oc2ccc3ccccc3c2cc1-c1nnc(Nc2cccc(C(F)(F)F)c2)s1
 : 103, 115
- CC(CNC(=O)c1ccc(CSc2nc3ccncc3n2Cc2ccccc2)cc1)c1ccccc1 (stereo not given)
 : 110, 109
- Cc1noc(Cn2c(=O)c3cc4c(cc3n(CC(=O)Nc3cccc(Cl)c3)c2=O)OCO4)n1
 : 106, 106
- CN(C)c1ccc(Nc2ncnc3c2c(-c2ccccc2)cn3-c2cccc(Cl)c2)cc1
 : 100, 100
- Cc1ccc2oc(C(=O)Nc3ccc(S(=O)(=O)Nc4ncccn4)cc3)cc(=O)c2c1
 : 113, 112
- CSc1ccccc1NC(=O)CCS(=O)(=O)c1nc(-c2ccc3c(c2)OCO3)cc(C(F)(F)F)n1
 : 102, 106
- O=C(Nc1ccc(Cl)c(C(F)(F)F)c1)c1cc2nc(-c3ccc4c(c3)OCO4)cc(C(F)(F)F)n2n1
 : 109, 112
- O=C(c1ccc2c(Cl)c3c(nc2c1)CCCC3)N1CCN(c2ccccc2)CC1
 : 101, 102

At a glance, part of the list above.
Second line of a record: Polio RdRp inh, Polio RdRp inh intensity
- CC1CCc2onc(C(=O)N3CCN(c4cccc(C(F)(F)F)c4)CC3)c2C1 (stereo not given)
 : 100, 106
- COc1ccc(-c2onc(C)c2C)cc1S(=O)(=O)Nc1ccc(OC(F)(F)F)cc1
 : 106, 114
- COC(=O)c1cc2oc3ccccc3c2n1CC(=O)Nc1ccc(C)cc1Cl
 : 103, 107
- Cc1ccc(NC(=O)CN2C(=O)CCn3nc(-c4cccn4C)cc32)c(Cl)c1
 : 108, 103
- Cc1nn(-c2ccc(N3CCCCC3)nn2)c(C)c1CCC(=O)Nc1cccc(F)c1
 : 102, 107
- COc1ccc(-c2cc3nc(-c4ccc(Br)cc4)cc(C(F)(F)F)n3n2)cc1
 : 106, 111
- CCC(=O)N1CCc2cc(S(=O)(=O)NC(Cc3ccccc3)C(=O)O)ccc21 (stereo not given)
 : 106, 112

Additional records
Second line of a record: Polio RdRp inh, Polio RdRp inh intensity
- CCOc1cc(C(=O)NCc2ccc3c(c2)CCN3C(=O)CC)cc(OCC)c1OCC
 : 104, 111
- CCN(c1ccccc1)S(=O)(=O)c1c(-c2ccc(C)cc2)csc1C(=O)OC
 : 102, 97
- Cc1ccc(-c2nc(C)c(CCNS(=O)(=O)c3ccc(F)c(C(F)(F)F)c3)s2)cc1
 : 106, 110
- CCC(CC)C(=O)N1CCc2cc(OC)c(OC)cc2C1COc1ccc(C(=O)OC)cc1 (stereo not given)
 : 104, 107
- O=S(=O)(c1ccc(Br)cc1)c1nnn2c1nc(NCc1ccc3c(c1)OCO3)c1sccc12
 : 107, 114
- Cc1nn(-c2ccccc2)c2c1N(CCCC(=O)NCc1ccccc1)C(=O)CS2
 : 105, 114
- O=c1c(=O)n(Cc2ccc(Cl)cc2)ccn1Cc1ccc(F)cc1
 : 103, 104
- COC(=O)c1cccc(CN2C(=O)SC(Nc3ccc(C)cc3)C2=O)c1 (stereo not given)
 : 104, 105
- CCc1ccccc1NC(=O)Nc1c[nH]c(=O)[nH]c1=O
 : 107, 104
- CC(C)N(Cc1nc(-c2ccc(Cl)cc2)no1)C(=O)c1ccc(C(C)(C)C)cc1
 : 108, 110
- CCOc1ccc(C2C(C(=O)Nc3ccc(OC)cc3)=C(C)Nc3nc(SCc4ccc(Cl)cc4)nn32)cc1 (stereo not given)
 : 113, 107
- O=C(CSc1nc2c(c(=O)[nH]1)CN(Cc1ccc(F)cc1)CC2)Nc1ccccc1Cl
 : -15*, 19*
- O=C(Nc1cc(Cl)ccc1Cl)C1(c2cccs2)CCOCC1
 : 109, 110
- Cc1nn(CCC(=O)NCc2ccc(Cl)cc2)c(=O)c2nn(-c3ccccc3)c(C)c12
 : 100, 108
- COC(=O)c1cc2oc3ccccc3c2n1CC(=O)Nc1ccc(Cl)cc1F
 : 108, 103

Second line of a record: Polio RdRp inh, Polio RdRp inh intensity
- O=C(Cn1cc(S(=O)(=O)N2CCCC2)c(S(=O)(=O)N2CCCC2)c1)Nc1ccccc1
 : 105, 110
- CSc1cccc(NS(=O)(=O)c2ccc3[nH]cc(C(=O)N4CCCC4)c(=O)c3c2)c1
 : 112, 111
- Cc1ccc(C)c(CSc2cn(CC(=O)N3CCCC3)c3ccccc23)c1
 : 112, 109
- Cc1ccc(C)c(N2CCN(CCCNC(=O)C3COc4ccccc4C3)CC2)c1 (stereo not given)
 : 102, 102
- Cn1cc(S(=O)(=O)N2CCCCC2)cc1C(=O)N1CCN(c2ccccc2F)CC1
 : 105, 108
- CCCCN(CC)C(=O)CSc1nc2n[nH]c(C)c2c(=N)n1-c1cccc(C)c1
 : 100, 87
- CCc1ccc(CNC(=O)CSc2cc(=O)n(C)c3ccc(Cl)cc23)cc1
 : 105, 105
- COc1ccccc1C(=O)Nc1cccc(C(=O)OCc2cc(=O)n3cc(C)sc3n2)c1
 : 105, 105
- O=C(c1ccc2c(c1)N(Cc1ccc(Cl)cc1)C(=O)c1ccccc1S2(=O)=O)N1CCCCC1
 : 110, 106
- CCOc1ccccc1NC(=O)C(=O)Nc1ccc2nc3n(c(=O)c2c1)CCCCC3
 : 102, 104
- CN1CCN(C(CNC(=O)c2ccccc2)c2ccc3c(c2)OCO3)CC1 (stereo not given)
 : 109, 110
- Cc1cccc(NC(=O)Cn2cc(C(=O)c3ccccc3)c3ccccc32)c1C
 : 100, 102
- COc1ccccc1CNC(=O)CSc1cc(C)[nH]c(=O)n1
 : 106, 111
- Cc1ccc(Cl)cc1NC(=O)N1CCN(C)c2ncccc21
 : 106, 116
- Cc1ccc(NC(=O)Cn2c(=O)n(CCCCCC(=O)NCc3ccc(F)cc3)c(=O)c3sccc32)c(C)c1
 : 101, 104

3 compounds picked at random from those above:
Second line of a record: Polio RdRp inh, Polio RdRp inh intensity
- CCc1ccc(CNC(=O)CSc2cc(=O)n(C)c3ccc(Cl)cc23)cc1
 : 105, 105
- O=C(c1ccc2c(c1)N(Cc1ccc(Cl)cc1)C(=O)c1ccccc1S2(=O)=O)N1CCCCC1
 : 110, 106
- Cn1cc(S(=O)(=O)N2CCCCC2)cc1C(=O)N1CCN(c2ccccc2F)CC1
 : 105, 108
